Screens: PubChem BioAssay, ICCB-Longwood Screening Facility, Harvard Medical School
Mtb MenB inh – Mtb MenB enzyme inhibition; P9WNP5; MenB enzyme assay, absorbance read-out; some hits fall short of the stated cut; inhibition, %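 (about 12 µg/mL by stock and volumes)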; 100,000 compounds, 0.43% hits;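 active = mean of two replicates above 30%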;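 note: 0% = no compound and 100% = wells with inactive enzyme; the first replicate is given; strong numbers were not always called active; inactives centre near -10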
PV pol inh – poliovirus RNA polymerase inhibition; P03300; % elongation, % (compound at 16.7 µg/mL); 150,000 compounds, 0.66% hits; poliovirus polymerase elongation, fluorescence polarization; active compounds read low; in the data active = % elongation below about 90%; note: some results filed as inactive read as strong as hits
Target sequence (P03300 1749-2209 limits assumed): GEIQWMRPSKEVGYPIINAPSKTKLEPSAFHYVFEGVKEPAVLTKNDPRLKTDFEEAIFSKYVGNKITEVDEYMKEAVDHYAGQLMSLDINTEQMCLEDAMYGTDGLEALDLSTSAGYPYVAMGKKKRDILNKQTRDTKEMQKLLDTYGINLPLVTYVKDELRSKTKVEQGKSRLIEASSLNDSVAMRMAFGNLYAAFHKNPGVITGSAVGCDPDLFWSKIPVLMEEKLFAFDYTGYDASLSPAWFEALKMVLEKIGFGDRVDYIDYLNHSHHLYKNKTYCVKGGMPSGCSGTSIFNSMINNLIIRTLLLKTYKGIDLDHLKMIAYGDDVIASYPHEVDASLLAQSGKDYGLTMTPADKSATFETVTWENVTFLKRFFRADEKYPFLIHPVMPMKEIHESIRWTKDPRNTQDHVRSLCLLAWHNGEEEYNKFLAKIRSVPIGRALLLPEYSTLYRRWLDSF
MbtI inh – inhibitors of Mycobacterium tuberculosis siderophore enzyme MbtI; P9WFX0; 100,000 compounds, 0.89% hits; inhibition, %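 (about 17 µg/mL by stock and volumes)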; purified MbtI enzyme, fluorescence intensity read-out;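 active = above 50% in both replicates, above 80% if mildly self-fluorescent; inactive = the rest, strongly fluorescent compounds included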;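 note: 0% = mean of negative and 100% = mean of positive controls; one replicate is shown; some compounds called inactive have numbers as strong as hits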
Target sequence (P9WFX0 whole entry, looked up): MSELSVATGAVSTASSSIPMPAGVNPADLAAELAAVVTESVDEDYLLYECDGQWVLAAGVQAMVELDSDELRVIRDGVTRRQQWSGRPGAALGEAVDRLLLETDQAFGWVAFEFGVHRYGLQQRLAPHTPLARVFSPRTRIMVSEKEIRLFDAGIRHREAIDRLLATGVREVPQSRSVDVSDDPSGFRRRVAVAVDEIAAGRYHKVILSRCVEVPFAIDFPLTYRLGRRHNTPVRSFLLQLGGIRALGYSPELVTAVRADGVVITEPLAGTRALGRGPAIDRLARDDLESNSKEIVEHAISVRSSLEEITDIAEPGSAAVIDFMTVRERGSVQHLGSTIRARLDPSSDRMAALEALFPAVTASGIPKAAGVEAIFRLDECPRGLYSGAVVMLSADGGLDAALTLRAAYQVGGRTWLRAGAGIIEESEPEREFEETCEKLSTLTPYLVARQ
PV pol inh intensity – recorded beside PV pol inh, whose call it bears; % elongation; measured here: total intensity read-out; formula for this scale not given here;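 total fluorescence in place of polarization; lower means less elongation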
Active calls of the source: *; x = no result given; & = joins results of further samples. Not a hit list; about 1.7% have a hit in one of these screens.

SMILES	Mtb MenB inh	PV pol inh	PV pol inh intensity	MbtI inh
CCOc1ccc(CCNC(=O)Cc2noc3ccccc23)cc1	-13.9	106.0	105.0	-0.9
CC(C)[C@H](NC(N)=O)C(=O)NCc1ccccc1	0.5	104.0	105.0	4.2
O=C(OCCOc1ccccc1)c1cc(=O)[nH]c2ccccc12	-16.7	105.0	104.0	-7.5
CC(C(N)=O)N1C(=O)c2ccccc2C1=O (configuration not stated)	6.1	102.0	98.0	x
COCc1cc(C)nc(OCC(=O)N/N=C/c2cccnc2)c1C#N	2.1	104.0	100.0	114.3
CCN(CC)c1ccc(C(=O)Nc2nc(-c3ccc(C)o3)cs2)cc1	-35.4	99.0	101.0	107.3
CN1CCN(c2cnn(-c3ccccc3)c(=O)c2Br)CC1	-13.9	100.0	103.0	-6.9
NNC(=O)CN1C(c2ccc(Cl)cc2)=Nc2ccc(Cl)cc2C1c1ccccc1 (configuration not stated)	12.0	103.0	97.0	7.3
COc1ccc(-n2c(O)c(C=NC3CN4CCC3CC4)c3ccccc3c2=O)cc1OC (configuration not stated)	-12.3	98.0	96.0	3.3
Nc1nonc1-c1nc2ccccc2n1CC(=O)N1CCCCC1	-20.1	107.0	102.0	-3.8
CN1CCc2nc3sc(C(=O)NC(C)(C)C)c(N)c3cc2C1	7.4	100.0	103.0	x
CC(=O)N1c2ccccc2C(=O)C1Sc1nc(C)cc(-c2ccccc2)n1 (configuration not stated)	6.4	102.0	98.0	-0.3
c1ccc(Nc2cnccn2)cc1	-5.4	106.0	108.0	-40.5
COc1ccc(CCNC(=O)CSc2ccccn2)cc1	x	102.0	105.0	-6.2
CCOC(=O)Cn1c(C)c(Sc2ccccc2)c2ccccc21	-10.0	107.0	106.0	x
CC(C)N(C(=O)CNc1cc(Cl)ccc1Cl)c1ccccc1	x	102.0	103.0	1.2
O=C(NC1CCCCC1)C1c2ccccc2C(=O)N1C1CCCC1 (configuration not stated)	-35.6	105.0	103.0	-5.8
CC(CC(=O)N1CCN(c2ccccn2)CC1)n1ccnc1 (configuration not stated)	-8.2	104.0	92.0	119.2
CC1(C)Cc2ccccc2/C(=C/C(=O)N2CCCCCC2)N1	-5.2	102.0	102.0	-16.8
O=C(O)C1(c2ccc(O)cc2)CCCC1	-0.5	100.0	102.0	-4.2
NCCN1C(=O)CSC1=O	x	101.0	102.0	-0.8
O=C1CC(c2ccccc2)=NN1	-19.9	101.0	104.0	-9.4
COc1ccccc1N(CC(=O)Nc1sc2c(c1C(N)=O)CCC2)S(=O)(=O)c1cccs1	-25.0	108.0	116.0	-167.5
CC(=O)N1c2ccccc2C(=O)C1N1CCCCC1 (configuration not stated)	-33.4	104.0	104.0	26.1
O=S(=O)(c1ccc(-n2cnnn2)cc1)N1CCCC2CCCCC21 (configuration not stated)	-24.1	103.0	104.0	-18.8

A portion of the results above, as a working copy:
SMILES	Mtb MenB inh	PV pol inh	PV pol inh intensity	MbtI inh
c1ccc(Nc2cnccn2)cc1	-5.4	106.0	108.0	-40.5
COc1ccc(CCNC(=O)CSc2ccccn2)cc1	x	102.0	105.0	-6.2
CCOC(=O)Cn1c(C)c(Sc2ccccc2)c2ccccc21	-10.0	107.0	106.0	x
CC(C)N(C(=O)CNc1cc(Cl)ccc1Cl)c1ccccc1	x	102.0	103.0	1.2
O=C(NC1CCCCC1)C1c2ccccc2C(=O)N1C1CCCC1 (configuration not stated)	-35.6	105.0	103.0	-5.8
CC(CC(=O)N1CCN(c2ccccn2)CC1)n1ccnc1 (configuration not stated)	-8.2	104.0	92.0	119.2
CC1(C)Cc2ccccc2/C(=C/C(=O)N2CCCCCC2)N1	-5.2	102.0	102.0	-16.8
O=C(O)C1(c2ccc(O)cc2)CCCC1	-0.5	100.0	102.0	-4.2
NCCN1C(=O)CSC1=O	x	101.0	102.0	-0.8
O=C1CC(c2ccccc2)=NN1	-19.9	101.0	104.0	-9.4
COc1ccccc1N(CC(=O)Nc1sc2c(c1C(N)=O)CCC2)S(=O)(=O)c1cccs1	-25.0	108.0	116.0	-167.5
CC(=O)N1c2ccccc2C(=O)C1N1CCCCC1 (configuration not stated)	-33.4	104.0	104.0	26.1
O=S(=O)(c1ccc(-n2cnnn2)cc1)N1CCCC2CCCCC21 (configuration not stated)	-24.1	103.0	104.0	-18.8

(list continues)
SMILES	Mtb MenB inh	PV pol inh	PV pol inh intensity	MbtI inh
CCn1c(O)c(C=NCCc2c[nH]c3ccccc23)c(=O)[nH]c1=O	-3.1	101.0	102.0	6.7
O=C1CCN(S(=O)(=O)c2cccc(S(=O)(=O)c3ccc(Cl)cc3)c2)C2CCCCC12 (configuration not stated)	-5.9	109.0	115.0	x
Cn1c(=O)c2c(ncn2C/C=C/c2ccccc2)n(C)c1=O	-2.6	101.0	102.0	-15.5
O=C(CSc1ccc(F)cc1)OCCN1CCOCC1	2.2	100.0	102.0	4.5
CCC(=O)Nc1nnc(C(C)(C)C)s1	26.2	102.0	104.0	3.2
Cc1oc2ccccc2c1CNC(N)=O	3.3	103.0	98.0	-0.6
Cc1cc(N)n(N)c(=O)c1	-9.8	104.0	101.0	12.8
CCSc1nc2ncnc(N)c2[nH]1	6.3	101.0	104.0	23.5
CCOC(=O)/C(=N\Nc1ncnc2ccccc12)c1ccc(OC)cc1	-103.6	108.0	111.0	-4.0
Cn1cc(C(=O)NCc2cccs2)c(=O)c2cc(S(=O)(=O)N3CCOCC3)ccc21	-2.7	100.0	97.0	0.5
O=C(Nc1ccc2c(c1)CCC2)C1CCN(c2ccc(S(=O)(=O)N3CCCC3)cc2)CC1	-31.9	105.0	100.0	-0.1
CCCOC(=O)COc1ccc2c3c(c(=O)oc2c1C)CCCC3	-23.5	106.0	102.0	-0.6
C=CC1CN2CCC1CC2[C@@H](OC(=O)c1ccc(OC)cc1)c1ccnc2ccccc12 (some centres not stated)	-29.0	104.0	105.0	-7.5
CCC(C)NC(=O)c1sc2nc(C)nc(N(C)c3ccc(C(C)C)cc3)c2c1C (configuration not stated)	-32.4	101.0	103.0	10.7
CCN(Cc1ccccc1)C(=O)Cn1cc2c(n1)-c1c(oc(C(=O)N3CCCC3)c1C)CC2	-5.4	97.0	100.0	-35.3
COc1cc(/C=N/n2cnc3scc(-c4cccs4)c3c2=O)ccc1O	-1.8	100.0	96.0	23.8
Cc1cccc(N2CCN(CC(=O)NCc3cccs3)CC2)c1C	22.5	101.0	100.0	1.6
NC(=O)C1CCN(C(=O)/C=C2\Sc3ccccc3NC2=O)CC1	0.0	101.0	96.0	25.0
NCCCNC(=O)c1ccc(/C=N\O)nc1	16.3	97.0	103.0	3.9
CCn1c(SCc2ccccc2)nnc1-c1ccncc1	x	103.0	106.0	-6.0
CCN(CC)c1ccc(-c2nc(NC(C)=O)c3c(=O)oc4ccccc4c3n2)cc1	-22.2	103.0	116.0	-2.2
C=CCOc1ccc(C=C(C#N)C#N)cc1	-11.4	98.0	95.0	4.3
COc1cc2cc3c4c(cc(OC)c(OC)c4c2cc1OC)CCN3C	0.7	18.0*	30.0*	x
NCCN1CCN(Cc2ccccc2)CC1	8.5	98.0	104.0	-21.1
CC1=C(C)C(=O)N(c2ccc(C(=O)O)cc2)C1=O	x	102.0	102.0	-4.0

Later entries:
SMILES	Mtb MenB inh	PV pol inh	PV pol inh intensity	MbtI inh
CCN(C(=O)C(C)Oc1ccccc1)C1CCCCC1 (configuration not stated)	2.3	105.0	111.0	-15.4
CCOC(=O)N1CCC(n2c(SCC(=O)N(C)Cc3ccccc3)nc3ccccc3c2=O)CC1	-9.1	101.0	102.0	-14.4
CCCN(CC(=O)Nc1ccc(F)c(F)c1F)Cc1c(C(=O)OCC)oc2ccccc12	5.8	102.0	107.0	1.4
Cc1cc(C)n(C(C)CNC(=O)c2ccccc2)n1 (configuration not stated)	-48.2	104.0	102.0	-9.0
O=C(OCC(=O)N1CCCC1)c1ccccc1OCc1ccccc1Cl	x	102.0	98.0	-2.0
CC(OC(=O)c1cccs1)C(=O)Nc1cccc(Cl)c1Cl (configuration not stated)	x	101.0	106.0	-11.8
Clc1c(-c2nnc3n2CCCCC3)sc2ccccc12	-34.2	101.0	109.0	-1.9
Cc1cccn2c(=O)c(C=C3C(=O)NC(=S)NC3=O)c(N3CCCC3)nc12	-36.3	102.0	111.0	-2.5
Clc1cccc(Nc2nnc(-c3ccccc3)c3ccccc23)c1	5.0	99.0&100.0	102.0&100.0	-7.4
CCN1C(=O)C2C(c3ccc(OC)cc3)NC(CC)(C(=O)OC)C2C1=O (configuration not stated)	4.9	104.0	103.0	-5.5
CCN(CC)S(=O)(=O)c1cccc(C(=O)OCC(=O)c2cccs2)c1	-39.0	x	x	-1.4
CCc1nn(CC(=O)NCCCN2CCCCC2CC)c(=O)c2cc3sc(C)cc3n12 (configuration not stated)	4.6	101.0	100.0	3.0
C=CCc1cccc2cc(C(N)=O)c(=N)oc12	-4.7	100.0	100.0	-190.2
O=C(OC(C(=O)NCc1ccc2c(c1)OCO2)c1ccccc1F)c1ccco1 (configuration not stated)	-29.7	104.0	100.0	-7.8
O=C(CSC1=NCCS1)n1c2c(c3ccccc31)CCCC2	18.6	100.0	102.0	1.1
COc1ccccc1CNC(=O)c1ccc(N2CC3CC(C2)c2cccc(=O)n2C3)c(NC(=O)c2ccncc2)c1 (configuration not stated)	-3.6	103.0	103.0	-20.4
Cc1cc(C(=O)OCC(=O)c2ccc3c(c2)OCO3)c2ccccc2n1	-19.7	105.0	98.0	31.3
COc1ccc(N2CCOCC2)c(NC(=O)c2ccco2)c1	-5.7	104.0	101.0	x
CC(C(=O)C12CC3CC(CC(C3)C1)C2)N(C)C (configuration not stated)	9.7	100.0	105.0	2.7
Cc1ccc(CN(C)C(=O)C2CCN(C(=O)Nc3ccccc3)CC2)o1	5.7	104.0	120.0	10.6
COC(=O)C1=C(C)N=C2SC(C)C(=O)N2C1c1ccc(C(C)C)cc1 (configuration not stated)	-10.2	99.0	100.0	-3.1
O=C(O)c1cc2ccc(F)cc2[nH]1	-85.0	103.0	102.0	44.5
CCOC(=O)/C(C#N)=C/Nc1ccn[nH]1	2.3	102.0	96.0	4.7
C=CCNC(=O)C1CC(c2ccccc2OC)=NO1 (configuration not stated)	-7.4	101.0	102.0	13.6
O=C(COc1cccc(NC(=O)c2ccccc2)c1)NCCOc1ccccc1	-13.2	102.0	97.0	x

Continuation.
SMILES	Mtb MenB inh	PV pol inh	PV pol inh intensity	MbtI inh
CCO/C=N/c1c(C#N)c(CC#N)nn1-c1ccccc1	-2.5	100.0	114.0	-33.6
CCOC(=O)c1ccc(NC(=O)CC2SC(=Nc3ccc(S(N)(=O)=O)cc3)NC2=O)cc1 (configuration not stated)	-27.5	103.0	101.0	-4.0
c1ccc2c(c1)sc1ccccc12	7.3	100.0	101.0	-11.1
Cc1ccc(C(=O)ON=C2CCN(C)CC2)cc1	-8.4	105.0	99.0	-7.1
CCSc1nnc(NC(=O)c2ccccc2)s1	7.3	102.0	103.0	29.6
COc1ccc(NC(=O)c2cn(-c3ccccc3)nc2-c2cccnc2)cc1	x	95.0	92.0	-1.8
CCOC(=O)n1c(SCC)nc2ccccc21	5.2	100.0	100.0	-1.8
CCC1=Nc2ccc(Br)cc2C(c2ccccc2)N1CC(=O)NN (configuration not stated)	7.5	102.0	98.0	6.9
CN(C)c1ccc(N=Cc2cccn2C)cc1	x	105.0	107.0	-5.3
COc1ccc(C(=O)NCC(=O)c2ccccc2)cc1	-17.4	99.0	101.0	-4.4
CN(CCC#N)S(=O)(=O)c1cn(C)c(=O)n(C)c1=O	-8.3	107.0	103.0	0.9
O=C(NC1=NCCN1)c1c(Cl)cccc1Cl	-0.6	104.0	108.0	-10.3
Cc1ccccc1C(=O)NCC(=O)O	-45.9	98.0	106.0	-4.0
CC1=CS(=O)(=O)CC1Sc1n[nH]c(C)n1 (configuration not stated)	11.9	101.0	105.0	-0.4
Oc1oc(-c2ccccc2)nc1C1=Nc2ccccc2CC1	-191.4	104.0&96.0	103.0&102.0	-10.8&3.2
O=C(NC(=S)NCC1COc2ccccc2O1)c1ccc(Cl)cc1 (configuration not stated)	-33.6	102.0	109.0	-4.7
O=C1NC(=O)C(=CN2CCN(S(=O)(=O)c3ccc(Cl)cc3)CC2)C(=O)N1	-89.8	98.0	97.0	5.5
NNC(=O)CNc1ccc2c(c1)OCO2	2.6	108.0	101.0	-1.8
Cc1cc(Cl)ccc1OCC(=O)OCC(=O)c1ccc(Cl)cc1	x	103.0	107.0	-10.2
O=C(c1cccs1)N(c1ccccc1)C1C=CS(=O)(=O)C1 (configuration not stated)	3.6	101.0	101.0	-3.4
CCN1Cc2cccc(C(=O)Nc3ccc(Br)cc3)c2C1=O	7.0	101.0	102.0	8.1
CCN(CC)C(=S)Sc1ncnc2sc3c(c12)CCCC3	-25.8	104.0	106.0	17.6
CC1CC(C)CN(S(=O)(=O)c2ccc(F)c(C(=O)Nc3cccc(F)c3)c2)C1 (configuration not stated)	-4.3	100.0	98.0	-2.9
Cc1ccn2c(NC(=O)C(C)(C)Oc3ccc(Cl)cc3)c(-c3ccc(F)cc3)nc2c1	4.3	100.0	98.0	-2.5
CN(C)C(=O)COc1ncnc2sc3c(c12)CCC3	-17.2	101.0	103.0	-6.0
Cc1ccc(-c2noc(-c3ccc(Oc4cc(Cl)cc(Cl)c4)o3)n2)cc1	-21.1	102.0	99.0	5.8
O=C(Nc1n[nH]c(C(F)(F)F)n1)c1cccs1	-11.5	100.0	105.0	3.4
O=C(CSc1ccc(Cl)cc1)NCC1CCCO1 (configuration not stated)	x	102.0	104.0	0.8
